Screens: PubChem BioAssay, several laboratories
ugtP null kill – compounds lethal to S. aureus RN4220 ugtP deletion mutant; OD600 growth, 16 h; some inactives read as strong as hits; growth inhibition, % (concentration not given with the values); actives 0.54% (n = 330,000);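 active = z-score under -3 and OD600 up to 0.15 on both plates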;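 note: plate controls were untreated wells for no effect and antibiotic for full effect; wells of about 80 µL received 100 nL stock; the first replicate is given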
RN4220 kill – kills Staphylococcus aureus RN4220; S. aureus RN4220 growth, OD600, 16 h; inhibition, % (test concentration not listed); actives 0.33% (n = 330,000);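 active = z-score of -3 or lower and OD600 up to 0.18 on both plates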;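 note: plate controls were untreated cells for no effect and reference antibiotic for full effect; stock transfer was 100 nL into about 80 µL; one replicate is shown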
Mtb hypoxia rep – Mtb hypoxia fluorescent reporter inhibition | AID 1159583 | fluorescence inhibition, % (no concentration beside the values) | M. tuberculosis hypoxia-regulated fluorescent reporter, fluorescence | actives 0.1% (n = 300,000);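 active = 35 to 45% if threefold the growth effect, above 45% if 1.5-fold the growth effect; inactive = the rest, general growth blockers included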;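 note: wells of about 50 µL received 100 nL stock; 0% = vehicle wells and 100% = reference inhibitor wells; whole bacteria with a GFP reporter of the hypoxia response; strong numbers were not always called active; many hits fall short of the cut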
PrP 5UTR inh – suppresses PrP 5' UTR mRNA reporter expression. inhibition, % (concentration not given with the values). cell-based PrP 5' UTR mRNA reporter, plate reader. actives 0.35% (n = 340,000);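 active = every replicate at 50% or more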;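 note: 0 = median of the neutral control wells; tested in H4 reporter cells; numbers are from one replicate; inactives centre near -14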
BJeLR viability – kills HRASV12-expressing BJeLR cells | BJeLR (HRASV12) viability, CellTiter-Glo ATP luminescence, 48 h; reference of the scale not given here | inhibition, % (no concentration beside the values) | actives 0.17% (n = 300,000) | AID 1554;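 active = replicate mean above 50%; inconclusive = above 50% but judged a plate artefact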;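 note: 50 nL library stock added to about 25 µL; numbers are from one replicate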
Autofluor counter – flagged as autofluorescent in microsphere protease counterscreen. compound autofluorescence counterscreen, microsphere flow cytometry; hits give high values. fluorescence intensity (no concentration beside the values). actives 3.1% (n = 360,000). AID 624483;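 active = at least 3 SD above the mean of all compounds, about 16000 in these data; inconclusive = too few beads counted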;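 note: 100 nL of 1 mM stock went into each well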
Mtb hypoxia rep growth – recorded beside Mtb hypoxia rep, whose call it bears; growth inhibition, %; measured here: M. tuberculosis growth (absorbance);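 0% = vehicle and 100% = reference antibiotic; read after six days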
* marks the source's active call; other numbers are inactive results; ? = inconclusive; · = no result given.

SMILES | ugtP null kill | RN4220 kill | Mtb hypoxia rep | Mtb hypoxia rep growth | PrP 5UTR inh | BJeLR viability | Autofluor counter
Cc1ccc2nc(N(CCCN(C)C)C(=O)c3ccco3)sc2c1 | -5 | 4.0 | 11 | -2 | -48 | 4 | 4632
Cc1ccc(CS(=O)(=O)Cc2ccc(C(=O)NCc3ccccn3)o2)cc1 | -1 | 8.0 | 4 | 8 | -7 | -5 | 5963
CCCCn1c(N)c(N(CCC(C)C)C(=O)c2ccc(N3CCCC3=O)cc2)c(=O)[nH]c1=O | 2 | 1.9 | -4 | -3 | -1 | 5 | 5596
COc1ccccc1CNc1cc(CSc2ccc(Cl)cc2)nc(C)n1 | 7 | 5.4 | · | · | -12 | 1 | 2791
CC(C)Oc1nc(-c2ccc(Cl)cc2)nc2ccccc12 | 71 | -6.2 | 4 | -2 | -15 | 6 | 4217
COCC(C)NC(=O)COCc1cc(-c2ccc3c(c2)OCO3)on1 (stereo not given) | 6 | 3.6 | 6 | 6 | -7 | -2 | 3693
O=C(Nc1cccc(Cl)c1)Nc1c[nH]c(=O)[nH]c1=O | 4 | 2.0 | 9 | 5 | -19 | 1 | 3798
Cc1ccc(NC(=O)C[n+]2ccccc2)cc1C | 3 | 0.3 | 3 | 9 | -10 | -2 | 3022
O=C(c1cc(-c2ccc(Cl)c(Cl)c2)on1)N1CCCCC1 | 0 | 5.1 | -9 | -8 | · | -3 | 11151
COc1cccc(N(CC(=O)NC2CCCC2)C(=O)CCC(=O)Nc2cc(C)on2)c1 | 13 | 3.2 | 11 | 6 | -11 | 0 | 5410
NS(=O)(=O)c1cccc(NC(=O)c2ccccc2NS(=O)(=O)c2ccc(F)cc2)c1 | 20 | -2.1 | 8 | 7 | -23 | 4 | 3613
Cc1ccc(-c2csc(NCCc3nc4cc(Cl)c(Cl)cc4n3CCCO)n2)cc1 | 12 | 5.0 | -2 | 1 | -28 | 2 | 3283
Cc1ccc(S(=O)(=O)N2CCCCC2)cc1NC(=O)CSc1nnc(C2CC2)n1N | 2 | 2.1 | 0 | 4 | -8 | · | 6028
O=C(CSc1n[nH]c(-c2ccccc2)n1)c1ccccc1 | 9 | 7.2 | 1 | 8 | -15 | 0 | 5569
COC(=O)n1c(SC)nc2ccccc21 | -1 | 0.6 | · | · | 0 | -3 | 4813
CN1/C(=C\C=N\O)C(C)(C)c2ccccc21 | · | · | · | · | -18 | 4 | 3326
O=C(O)CCCNc1cc(N2CCN(C(=O)c3ccco3)CC2)c2noc3c2c1C(=O)c1ccccc1-3 | · | · | · | · | -3 | 2 | 5500
Cc1ccccc1Cn1cc(NS(=O)(=O)c2cn(C)nc2C)cn1 | 5 | 4.1 | 0 | 0 | 2 | 6 | 6552
Cc1nnc(SCc2cccc(Cl)c2)n(N)c1=O | 7 | 3.1 | 7 | 7 | -21 | -4 | 4376
COC(=O)c1ccc(NC(=O)c2cc(-c3ccncc3)nc3ccccc23)cc1 | -1 | 1.6 | 5 | 7 | -16 | · | 3487
CN1CCN(CCCNC(=O)C2CC(=O)N(C3CCCCC3)C2)CC1 (stereo not given) | -2 | -9.8 | 16 | 12 | -56 | 1 | 2880
COc1ccccc1C(=O)N1CCN(C(=O)Cc2ccccc2)CC1 | 5 | 2.1 | 1 | 6 | -16 | 0 | 3801
O=C1CCCc2oc3c(cc(NS(=O)(=O)c4ccc5c6c(cccc46)C(=O)N5)c4ccccc43)c21 | 34 | 2.3 | -2 | -5 | -20 | -2 | 5180
COc1ccccc1N/N=C/c1ccc2c(c1)OCO2 | · | · | · | · | -56 | -3 | 2019
CCN(c1ccccc1)S(=O)(=O)c1ccc2c(c1)CC(C)N2C(=O)C1CC1 (stereo not given) | -3 | 12 | 3 | 5 | -18 | -6 | 4479
C/C(=N/NC(=O)CNc1ccc(C)cc1)c1ccc(Br)s1 | · | · | · | · | -16 | -20 | 19958*
CC1(c2nnc(-c3cccc(Cl)c3)o2)CC(c2ccc(Cl)cc2)=NO1 (stereo not given) | 11 | 2.2 | 13 | 5 | -4 | -3 | 2955
COC(=O)C(C)n1cnc2c(cnn2-c2ccc(Cl)cc2)c1=O (stereo not given) | 5 | 5.4 | 9 | 1 | -50 | -14 | 3130
COc1ccc(NC(=O)CNC(=O)Cc2cccc3ccccc23)cc1 | 1 | 2.9 | -2 | 5 | -9 | · | 3497
Cc1cc(C(C)(C)C)cc(S(=O)(=O)Nc2cccc(C(=O)O)c2)c1C | 6 | 6.7 | 1 | 9 | -13 | 3 | 20337*
Cc1ccc(CN(C)C(=O)c2ccccc2Oc2ccccc2)o1 | -6 | 11 | 9 | 5 | -8 | -2 | 21202*
COc1ccccc1-c1cn[nH]c(=S)n1 | -2 | -0.4 | 11 | 8 | -19 | 8 | 3778
CON=C(COc1ccc(F)cc1)c1ccc(OC)cc1 | -3 | 0.7 | -10 | 3 | · | · | ·
O=C(CSc1ccccc1)NCCc1ccccc1 | 5 | 2.4 | -3 | 5 | -45 | 0 | 4050
COc1ccc(/C=C/c2nnc(NC(=O)COc3cccc(C)c3)s2)cc1 | 4 | 1.9 | 4 | 4 | -28 | -15 | 1968
CCOc1ccc(OCCCC(=O)NCCc2ccc(OC)cc2)cc1 | 9 | 5.0 | 1 | -7 | 1 | -3 | 5278
CCn1nnnc1SCC(=O)N1c2ccccc2NC(=O)CC1C (stereo not given) | 3 | 1.9 | 3 | -5 | -9 | · | 2921
NC(=O)[C@H]1CC2(CC(c3cccc(NC(=O)COc4ccc(Cl)cc4)c3)=NO2)CN1C(=O)Cc1ccc([N+](=O)[O-])cc1 (stereo not given in full) | · | · | · | · | -1 | 15 | 3035
CC12CCC(=O)C=C1CCC1C2C(O)CC2(C)C1CCC2(O)C(=O)COC(=O)COCC(=O)O (stereo not given) | 9 | 6.5 | 5 | 9 | -7 | · | 3328
CCOc1ccccc1NC(=O)Nc1cccc(S(N)(=O)=O)c1 | 1 | 1.3 | 0 | 0 | · | 2 | 4410

A draw from above in order of SMILES length, lowest first.
SMILES | ugtP null kill | RN4220 kill | Mtb hypoxia rep | Mtb hypoxia rep growth | PrP 5UTR inh | BJeLR viability | Autofluor counter
CCn1nnnc1SCC(=O)N1c2ccccc2NC(=O)CC1C (stereo not given) | 3 | 1.9 | 3 | -5 | -9 | · | 2921
C/C(=N/NC(=O)CNc1ccc(C)cc1)c1ccc(Br)s1 | · | · | · | · | -16 | -20 | 19958*
COc1ccc(NC(=O)CNC(=O)Cc2cccc3ccccc23)cc1 | 1 | 2.9 | -2 | 5 | -9 | · | 3497
CN1CCN(CCCNC(=O)C2CC(=O)N(C3CCCCC3)C2)CC1 (stereo not given) | -2 | -9.8 | 16 | 12 | -56 | 1 | 2880
CC1(c2nnc(-c3cccc(Cl)c3)o2)CC(c2ccc(Cl)cc2)=NO1 (stereo not given) | 11 | 2.2 | 13 | 5 | -4 | -3 | 2955
O=C1CCCc2oc3c(cc(NS(=O)(=O)c4ccc5c6c(cccc46)C(=O)N5)c4ccccc43)c21 | 34 | 2.3 | -2 | -5 | -20 | -2 | 5180

Later entries
SMILES | ugtP null kill | RN4220 kill | Mtb hypoxia rep | Mtb hypoxia rep growth | PrP 5UTR inh | BJeLR viability | Autofluor counter
O=[N+]([O-])c1ccc(Sc2ccccc2Cl)nc1 | 1 | 18 | 20 | 18 | -37 | -5 | 5927
COCCn1c(N)c(NCc2ccccc2)c(=O)n(CC(=O)Nc2cc(C)ccc2C)c1=O | -3 | 5.4 | 15 | 12 | -11 | -4 | 2563
COc1cccc(OC)c1C(=O)Nc1ccncc1 | 13 | 5.1 | -6 | 0 | -16 | 0 | 3703
O=C(NCc1ccccc1F)C(=O)NCC1OCCCN1S(=O)(=O)c1cccs1 (stereo not given) | -1 | 1.8 | 3 | 13 | -9 | 15 | 5674
Cc1nn(C)c(C(=O)NNC(=S)Nc2ccc(Cl)cc2)c1[N+](=O)[O-] | 4 | 3.8 | 2 | 0 | -7 | 8 | 11626
COc1cccc2c1c(NC(=O)c1cc(C)on1)nn2C | 3 | 2.5 | -8 | 9 | -19 | -6 | 3669
Cc1c(NS(=O)(=O)c2cc(C(=O)NCC3CCCO3)cc(Cl)c2Cl)c(=O)n(-c2ccccc2)n1C (stereo not given) | 3 | 1.3 | 3 | 7 | -26 | -22 | 6712
CC1CCCCN1S(=O)(=O)c1ccc(S(=O)(=O)N(CC(=O)Nc2ccccc2)Cc2cccs2)cc1 (stereo not given) | · | · | · | · | -21 | 0 | 2564
Nc1c(C(=O)Nc2ccccc2)c2nc3ccccc3nc2n1CCCN1CCOCC1 | -3 | 3.1 | 15 | 20 | -12 | 1 | ·
CC(=O)NC12CC3CC(C1)CC(C(=O)Nc1nccs1)(C3)C2 | 4 | 0.4 | · | · | -2 | -3 | 4756
O=C(c1cc(-c2ccc(Cl)cc2)on1)N1CCN(c2ccc(F)cc2)CC1 | -3 | 3.0 | 5 | 0 | -38 | 3 | 6362
Oc1ccc(Cl)cc1-c1cc(-c2cccc(Br)c2)n[nH]1 | 36 | 11 | 2 | 7 | -40 | 1 | 8831
COc1ccc(/C=N/NC(=O)c2ccc(Br)cc2)cc1CN1CCOCC1 | · | · | · | · | -5 | -7 | 3946
O=C(O)CCC(=O)NNC(=O)c1cccc(Cl)c1 | 5 | -1.6 | -1 | -3 | -10 | -6 | 2419
Cc1ccc(N2C(=N)SCC2=O)cc1Cl | -4 | -7.0 | -9 | -17 | -15 | 1 | 10624
COCCCN1C(=O)C(=O)/C(=C(/O)c2ccc(OC)cc2)C1c1ccc(O)c(OC)c1 (stereo not given) | 3 | 12 | -2 | 1 | -3 | -3 | 2960
O=S1(=O)N=C(Nc2nc3c(s2)CCCC3)c2ccccc21 | -6 | 4.4 | · | · | -53 | · | 3554
COc1ccc(NC(=O)CSc2nnc(CNC(=O)c3ccco3)o2)cc1 | 5 | 1.9 | -1 | 4 | -2 | -16 | 2066
COC(=O)c1ccc2nc(NC(=O)CCS(=O)(=O)c3ccccc3)sc2c1 | 9 | 2.4 | -10 | -6 | -1 | 1 | 5785
COc1ccccc1-n1c(SCC(N)=O)nnc1-c1ccccc1 | 0 | 0.4 | -2 | -5 | -13 | 6 | 3413
CCc1cc(CNC(=O)c2cccc(OC3CCN(S(C)(=O)=O)CC3)c2)on1 | 2 | 0.9 | 3 | 0 | -22 | -19 | 5651
O=C1c2ccc(-c3nc4ccccc4o3)cc2C(=O)N1Cc1cccnc1 | 0 | 2.2 | 10 | 3 | · | 10 | ·
CCOc1ccc(NC(=O)c2ccccc2NC(=O)CN(C)CC(=O)Nc2ccc(C)cc2)cc1 | -1 | 6.6 | 11 | 2 | -10 | 2 | 2652
CCOC(=O)C1(CCOC)CCN(C/C=C/c2ccccc2OC)CC1 | · | · | · | · | -39 | -8 | 3986
O=C(c1cccc(S(=O)(=O)N2CCCC2)c1)N1CCN(S(=O)(=O)c2cccc(Cl)c2)CC1 | 9 | 3.6 | 10 | 10 | · | · | 4422
Cc1ccc(C2=NN(C(=O)CN3C(=O)c4ccccc4S3(=O)=O)C(c3ccco3)C2)cc1 (stereo not given) | 5 | 2.7 | 7 | 3 | -13 | 13 | 4192
Cc1ccc(/C=C2\SC(N3CCN(C(c4ccccc4)c4ccccc4)CC3)=NC2=O)o1 | 2 | -8.8 | 0 | 15 | -4 | -14 | 2742
Cc1cccc(Oc2coc3cc(OC(=O)c4cc5ccccc5oc4=O)ccc3c2=O)c1 | 0 | 6.9 | 10 | 9 | -35 | 6 | 20697*
Cc1ccccc1C(=O)Nn1cnnc1 | 2 | 1.8 | 1 | 9 | -32 | -12 | 4169
N#Cc1ccccc1S(=O)(=O)N1CCC(C(=O)Nc2cccc(C(=O)NC3CC3)c2)CC1 | 7 | 2.9 | 4 | 5 | 5 | · | ?
CCOC(=O)c1[nH]ncc1CN1CCCC(C(=O)c2ccc(OC)c(OC)c2)C1 (stereo not given) | 0 | 4.8 | 12 | -13 | 4 | 6 | 2461
Cc1ccccc1OCc1nc(-c2ccc(NC(=O)c3ccc4c(c3)OCO4)cc2)no1 | 6 | 4.0 | · | · | -49 | 6 | 3696
CCOc1ccccc1-c1nc(-c2ccc(C)nc2OC)no1 | 0 | 1.6 | 7 | 11 | -56 | -1 | 4670
Cc1ccc(OCc2cc(C(=O)N3CCc4[nH]cnc4C3c3ccccn3)no2)cc1C (stereo not given) | -3 | 2.8 | -7 | 10 | -15 | 2 | 5092
